KCNQ2 inh = KCNQ2 potassium channel inhibitors, primary screen, cell-based, CHO-K1, FluxOR thallium flux, B-score (AID 2156) | O88943 | 20 min; stronger effect = lower value; only compounds with negative scores are shown here; some inactives read as strong as hits | B-score at 10 µM | hit rate 1.1% among 310,000;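 active = fluorescence ratio B-score at most minus 3 library SDs, with starting brightness B-score within 2 library SDs, cut at about -5.5 in these data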
Target sequence (O88943 whole entry, looked up): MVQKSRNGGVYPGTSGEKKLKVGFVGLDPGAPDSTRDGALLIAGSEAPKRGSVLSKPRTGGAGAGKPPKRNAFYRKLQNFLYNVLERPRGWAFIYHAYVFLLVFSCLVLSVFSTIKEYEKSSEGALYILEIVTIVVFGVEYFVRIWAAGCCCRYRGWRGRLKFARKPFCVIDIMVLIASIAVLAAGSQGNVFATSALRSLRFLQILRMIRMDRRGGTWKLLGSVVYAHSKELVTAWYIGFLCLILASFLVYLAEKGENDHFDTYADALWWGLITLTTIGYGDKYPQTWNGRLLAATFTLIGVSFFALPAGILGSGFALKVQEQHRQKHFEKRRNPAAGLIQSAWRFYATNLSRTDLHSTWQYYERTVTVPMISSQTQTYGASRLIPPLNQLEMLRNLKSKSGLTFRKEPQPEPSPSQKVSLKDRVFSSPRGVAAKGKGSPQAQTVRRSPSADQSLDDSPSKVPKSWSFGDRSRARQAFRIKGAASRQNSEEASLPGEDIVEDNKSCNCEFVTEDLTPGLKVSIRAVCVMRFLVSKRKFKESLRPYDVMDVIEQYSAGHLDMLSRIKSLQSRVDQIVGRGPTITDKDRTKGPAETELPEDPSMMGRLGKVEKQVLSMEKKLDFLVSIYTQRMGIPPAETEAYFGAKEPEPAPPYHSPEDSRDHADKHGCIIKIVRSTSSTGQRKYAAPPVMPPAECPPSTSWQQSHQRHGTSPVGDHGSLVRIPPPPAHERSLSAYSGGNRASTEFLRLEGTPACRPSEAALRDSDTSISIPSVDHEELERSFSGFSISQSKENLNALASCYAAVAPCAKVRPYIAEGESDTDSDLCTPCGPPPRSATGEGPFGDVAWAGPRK
KCNQ2 inh baseline = further read-out of KCNQ2 inh, marked with its call; B-score; measured here: initial fluorescence intensity artifact check;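 brightness before thallium and not channel activity; 0 = typical well and far values either way flag optical interference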
* marks the source's active call; other numbers are inactive results; i = inactive.

SMILES	KCNQ2 inh	KCNQ2 inh baseline
O=C(NCc1ccccc1OC(F)(F)F)C1CCC(=O)N(Cc2ccccn2)C1 (stereo not drawn)	i	-1.28
COc1ccc(S(=O)(=O)NCCC(=O)NCc2cccs2)cc1	i	0.53
COc1ccccc1-c1c(C(F)(F)F)oc2cc(OC(=O)c3cccc([N+](=O)[O-])c3C)ccc2c1=O	i	1.4
COc1ccc2c(c1OC)C(C1c3c(cc4c(c3OC)OCO4)CCN1C)OC2=O (stereo not drawn)	i	-0.78
Cn1ccnc1SCc1ccc([N+](=O)[O-])cc1	i	-0.01
C=CCNCCCCOc1ccc(OCc2ccccc2)cc1	i	0.86
CC(C)CCN1CCC(n2nccc2NC(=O)C2CCOC2)CC1 (stereo not drawn)	i	-0.77
COc1ccc(C(NC(=O)c2ccc(-c3ccccc3)cc2)c2ccccc2)cc1 (stereo not drawn)	i	2.15
CCOc1ccc(NC(=O)c2cc(Cl)nc3ccccc23)cc1	i	0.47
CCOc1ccccc1NC(=O)N1CCCc2ccccc21	i	1.45
O=C(OCC(=O)N1CCCc2ccccc21)c1cnc(Cl)c(Cl)c1	i	-1.04
Cc1ccc2c(C(=O)CN3CCC(C(N)=O)CC3)c(C)[nH]c2c1	i	1.09
O=C(c1ccco1)N1CCN(C(=S)Nc2ccc(F)cc2)CC1	i	0.15
CCCCn1c(CCc2ccccc2)nc2cc3[nH]c(=O)c(C(C)C)nc3cc21	i	0.16
OC(CN1CCN(Cc2ccccc2)CC1)Cn1c2ccccc2c2ccccc21 (stereo not drawn)	i	-0.03
CCC(CC)C(=O)NCc1ccccc1Cl	i	-2.36
COc1ccc(-n2nc(C(=O)NCC(=O)Nc3ccccn3)c3ccccc3c2=O)cc1	i	0.11
CCCCCn1c(S(=O)(=O)O)nc2ccccc21	i	1.01
Cc1cc(C)nc(SCC(=O)N(C)CC(=O)Nc2c(Cl)cccc2Cl)n1	i	1.06
N/C(=N\OC(=O)C1CCCCC1)c1ccc(Cl)cc1	i	-1.72
Cc1ccc(C)c(NC(=O)C(C)CC2COCCO2)c1 (stereo not drawn)	i	1.37
CC(=O)Nc1ccc(SC[C@H](Cc2ccccc2)N2CCN(CCc3ccccc3)CCC2=O)cc1	i	0.67
CC(=O)Nc1nc(C)c(Cc2ccccc2)c(=O)[nH]1	i	-1.83
Cc1cccc(NCC(=O)N/N=C\c2cccn2C)c1	i	0.1
Cc1ccc(OCc2nnc(NC(=O)c3ccco3)s2)c(C)c1	i	0.04
Oc1ccc(C(=S)N2CCCCC2)cc1	i	1.6
CNc1ccc(C(O)(C(F)(F)F)C(F)(F)F)cc1C(O)(C(F)(F)F)C(F)(F)F	i	-0.15
C#CCOCCOCCOCCNc1nc(N2CCN(C(=O)[C@H](CCCCN)n3cc(CCCC)nn3)CC2)nc(N2CCN(C(=O)[C@H](CCCCN)n3cc(CCCC)nn3)CC2)n1	i	0.97
Cc1ccc2c(C)c(C(=O)NCc3ccc(S(N)(=O)=O)cc3)oc2c1	i	1.36
CCOC(=O)C(C)Sc1nnc(Cc2cc(=O)[nH]c(=O)[nH]2)n1-c1cccc(OC)c1 (stereo not drawn)	i	-0.13
N=c1c2c(n(Cc3ccc([N+](=O)[O-])cc3)c3c1CCC3)CCCC2	i	-0.96
O=C(COC(=O)c1ccccc1C(=O)c1ccc(Cl)cc1)NC(c1ccccc1)c1ccccc1	-8.73*	0.02*
O=C(c1cc([N+](=O)[O-])ccc1Cl)N1CCN(c2ccc([N+](=O)[O-])cc2)CC1	-6.87*	-2.28*
CN1CCN(S(=O)(=O)c2ccc(Oc3ccc(Br)cc3F)nc2)CC1	i	0.25
COc1cc(C(=O)Nc2cc(C(F)(F)F)ccc2Cl)cc(OC)c1OC	i	-0.78
CC(=O)Nc1ccc(S(=O)(=O)N(C)S(=O)(=O)c2ccc(F)cc2)cc1	i	-0.3
COc1ccc(Cl)cc1NC(=O)CSc1ncnc2c1oc1ccccc12	i	0.12
O=C(O)Cc1sc(N/N=C\c2ccncc2)nc1-c1ccccc1	i	0.67
CCOc1ccccc1Nc1nnc(SCC(=O)Nc2cc(C)on2)s1	i	0.16
CC(=O)c1cnc2nc(C)nn2c1C	i	3.45
CNC(=S)N/N=C/c1cc(C)ccc1C	i	-0.33
O=C(c1ccc(COc2ccc(Cl)cc2)o1)N1N=C(C(F)F)CC1(O)C(F)F (stereo not drawn)	i	-0.34
CCOc1ccc(C2C(C(=O)Nc3ccccc3)=C(C)N=c3s/c(=C/c4cccc(OCC(=O)O)c4)c(=O)n32)cc1 (stereo not drawn)	i	0.82
CCOC(=O)/C(C#N)=N/Nc1c(C)n(C)n(-c2ccccc2)c1=O	i	-1.72
CCOc1ccc(-c2[nH]ncc2Oc2ccccc2OCC)c(O)c1	i	1.22
COc1cccc(OC)c1C(=O)NC(=S)N1CCN(c2ccc(C(F)(F)F)cc2[N+](=O)[O-])CC1	i	-1.3
Cc1cccc(-n2c(CNC(=O)Cc3ccccc3)n[nH]c2=S)c1	i	-0.6
CCOC(=O)C1(CC2CC2)CCN(Cc2cnc(N(C)C)s2)CC1	i	-0.13
CC(=O)c1ccc(NCC2COc3ccccc3O2)c([N+](=O)[O-])c1 (stereo not drawn)	i	-2.39
COc1ccc(/C=C/CN2CCCC(C(=O)c3ccc(OC)c(F)c3)C2)cc1 (stereo not drawn)	i	-1.81
CCOC(=O)N1CCC(NC(=O)c2cc3cc4cc(OC)ccc4nc3o2)CC1	i	2.47
c1ccc(-c2cc3ccccc3[nH]2)cc1	i	-0.07
COc1ccc(C(C[N+](=O)[O-])c2c(C)[nH]n(-c3ccccc3)c2=O)cc1 (stereo not drawn)	-7.05*	-0.28*
CC(NC(=S)Nc1cccc(F)c1)C(c1cccs1)N1CCOCC1 (stereo not drawn)	i	-0.16
O=C(C1=C[C@@H](c2ccc(C(F)(F)F)cc2)C[C@@H](OCCCCO)O1)N1CCN(Cc2ccc3c(c2)OCO3)CC1	i	-1.53
CCn1c(SCC(=O)N2CCN(c3ccc(Cl)cc3)CC2)nc2ccccc2c1=O	i	-0.5
CC(CNC(=O)c1ccco1)NC(=O)c1ccco1 (stereo not drawn)	i	0.82
Cc1cc(C)c(C(CC(=O)c2cccs2)C(C#N)C#N)c(C)c1 (stereo not drawn)	i	0.67
O=C(CCCOc1ccc(Cl)cc1Cl)Nc1ncccn1	i	0.14
Cc1ccc(NC(=O)CS(=O)CC(=O)Nc2cnc3ccccc3c2)cc1Cl (stereo not drawn)	i	0.56

The listing continues:
SMILES	KCNQ2 inh	KCNQ2 inh baseline
NC(=O)C(c1ccc(Cl)cc1Cl)c1ncc(C(F)(F)F)cc1Cl (stereo not drawn)	i	-1.14
O=C(COc1ccccc1Cl)NCCNC(=O)c1ccccn1	i	-0.01
Cc1ccc(C(=O)c2c[nH]c(C(=O)NCCCN3CCOCC3)c2)cc1	i	-0.15
CCCCN(Cc1ccccc1)S(=O)(=O)c1c(N)n(C)c(=O)n(C)c1=O	i	-0.03
O=C(CSc1ccc2nnc(-c3ccccn3)n2n1)NCC1CCCO1 (stereo not drawn)	i	-0.06
N#C/C(=C\c1cc(Cl)c(OCc2ccc(Cl)cc2)c(Cl)c1)C(N)=O	i	-1.58
C/C(=C\c1ccco1)C1C(C#N)=C(N)Oc2n[nH]c(-c3ccccc3)c21 (stereo not drawn)	i	-0.54
CC(OC(=O)CNC(=O)c1ccc(Cl)c([N+](=O)[O-])c1)C(=O)NCc1ccco1 (stereo not drawn)	i	-0.77
O=C(Nc1cccnc1)c1cc(-c2ccccc2O)on1	i	0.56
Cc1[nH]n(-c2ccccc2)c(=O)c1C(C[N+](=O)[O-])c1ccc(Cl)cc1 (stereo not drawn)	i	-0.26
COc1ccc(/C=C2/Sc3ccc(C(=O)N4CCc5ccccc5C4)cc3NC2=O)cc1	i	-0.82
COc1ccc(/C=C/C(=O)c2c(O)ccc3c(C)cc(=O)oc23)cc1	i	-0.17
COc1cc(NC(=S)NCCCN2CCOCC2)cc(OC)c1OC	i	0.22
OC(c1cc(-c2ccc(C(F)(F)F)cc2)nc(C(F)(F)F)c1)C1CCCCN1 (stereo not drawn)	i	-1.42
CCOc1ncccc1C(=O)OCc1ccc(C(=O)OC)cc1	i	-0.82
COC(=O)c1c(NC(=O)CSc2nncs2)sc2c1CCCCC2	i	-1.25
O=C(Nc1ccccc1)c1ccc(-c2ccccc2)s1	i	0.65
O=C(NCCn1cccc1)c1cccc2ccccc12	i	0.1
Cc1ccc(C23CC4CC(CC(NC(=O)NCCN(C)C)(C4)C2)C3)cc1	i	1.13
Cc1ccc(N/N=C/C=C/c2ccco2)cc1	i	0.15
CCn1cc(CNCc2cn(C)nc2-c2ccc(C3CCCCC3)cc2)cn1	i	0.12
COc1cc(N2C(=O)CC3(CCCC3)CC2=O)cc(OC)c1OC	i	-0.02
COc1ccc(-c2csc3ncnc(N4CCN(c5ccccc5OC)CC4)c23)cc1	i	-0.04
COc1ccccc1C(=O)Nc1ccnn1C1CCN(C)CC1	i	-0.59
O=C(COc1ncnc2cc([N+](=O)[O-])ccc12)N(CCc1ccccc1)Cc1ccccc1	i	-0.34
COc1ccc(N=C2S/C(=C\c3ccc(N4CCOCC4)o3)C(=O)N2CCc2c[nH]c3ccccc23)cc1	i	3.86
FC(F)(F)c1ccc2c(c1)nc1n2CCCC1	i	0.79
O=C(Nc1cccc(O)c1)N1CCOCC1	i	1.01
Cc1cc(C(=O)N2CCc3ccccc32)n(-c2ccccc2)n1	i	0.75
C[C@H](NC(=O)[C@@H]1Cc2ccccc2CN1)C(=O)NC1CCCCC1	i	0.11

Part of the list above in order of heavy-atom count, low to high.
SMILES	KCNQ2 inh	KCNQ2 inh baseline
O=C(NCCn1cccc1)c1cccc2ccccc12	i	0.1
Cc1cc(C(=O)N2CCc3ccccc32)n(-c2ccccc2)n1	i	0.75
C[C@H](NC(=O)[C@@H]1Cc2ccccc2CN1)C(=O)NC1CCCCC1	i	0.11

Whole records, quoted from the list. Order of values: KCNQ2 inh | KCNQ2 inh baseline
C[C@H](NC(=O)[C@@H]1Cc2ccccc2CN1)C(=O)NC1CCCCC1 is entered as i | 0.11
Cc1cc(C(=O)N2CCc3ccccc32)n(-c2ccccc2)n1 is entered as i | 0.75
O=C(COc1ncnc2cc([N+](=O)[O-])ccc12)N(CCc1ccccc1)Cc1ccccc1 is entered as i | -0.34

Continuation:
SMILES	KCNQ2 inh	KCNQ2 inh baseline
CC(=O)Nc1ccc(OCC(O)Cn2cccn2)cc1 (stereo not drawn)	i	-0.84
CCOc1ccc(C(=O)NCC(c2ccco2)N2CCc3ccccc3C2)cc1 (stereo not drawn)	-6.37*	1.69*
CCCc1cc(=O)[nH]c(SCC(=O)N(CCOC)c2c(N)n(Cc3ccccc3)c(=O)[nH]c2=O)n1	i	2.17
O=C(CCC(=O)N1CCN(c2ccccc2F)CC1)c1ccc(F)cc1	i	-0.14
O=C(C1=C[C@@H](c2ccc(C(F)(F)F)cc2)C[C@@H](OCCCCO)O1)N1CCOCC1	i	2.84
N#Cc1c(N)n(-c2ccc(O)cc2)c2nc3ccccc3nc12	i	0.1
CC(=O)c1cccc(CN2CCCC(C(=O)Nc3ccc(-c4ccco4)cc3)C2)c1 (stereo not drawn)	i	-1.54
CCn1c2ccccc2c2cc(N=C3SC(CC(=O)Nc4ccccc4OC)C(=O)N3C)ccc21 (stereo not drawn)	i	-0.09
N#Cc1ccc(COc2ccc(CCO)cc2-n2nc3ccccc3n2)cc1	i	-0.8
COc1ccccc1C(=O)Nc1c2c(nn1-c1ccc([N+](=O)[O-])cc1)CS(=O)(=O)C2	i	-0.38
CCCCNC(=O)N(O)C1N(/N=C/c2cccs2)C(=S)SC1(C)C (stereo not drawn)	i	-0.07
CC12COC3(C(=O)Nc4ccccc4)CC1CCC32C (stereo not drawn)	i	1.23
O=C(Nc1ccccc1)Nc1nnc(-c2ccccc2)s1	i	1.6
CCOc1ccc(NC(=O)c2ccc(N3CC4CC(C3)c3cccc(=O)n3C4)c(NC(=O)c3cccnc3)c2)cc1 (stereo not drawn)	i	0.82
CCN1CCCC1CNC(=O)c1cc2cc(OC)c(OC)cc2[nH]1 (stereo not drawn)	i	-1.48
O=C(c1ccc(Cl)cc1)N1CCCC(C(=O)N2CCN(c3ccccc3)CC2)C1 (stereo not drawn)	i	1.5
O=C(CN1CCCCC1)Nc1ccc(Br)cc1[N+](=O)[O-]	i	1.37
COc1ccc(C(c2c(O)ccc3ccccc23)N2CCOCC2)c(OC)c1 (stereo not drawn)	-10.3*	1.36*
COc1ccc(/C=C/C(=O)Nc2ccncc2)cc1OC	i	-0.24
Cc1ccccc1OCC(=O)Nc1ccc2c(c1)OCO2	i	-0.94
O=[N+]([O-])c1ccc(O)c(/C=N/NC2=NS(=O)(=O)c3ccccc32)c1	i	-1.01
CN(C)CCN(C(=O)c1ccccc1Cl)c1nc2c(Cl)cccc2s1	i	-0.45
COC(=O)c1cc(C#N)c(N2CC(C)OC(C)C2)nc1C (stereo not drawn)	i	-0.92
O=S(=O)(NCCCc1ccccc1)c1ccc(F)c(F)c1	i	-0.9
Cc1noc(C)c1S(=O)(=O)N1CCC(C(=O)N2CCN(c3ccc(F)cc3)CC2)CC1	i	2.65
CCOc1ccc(Cl)cc1CNCCCSc1ncccn1	i	1.3
O=C(CSc1nnc(-c2cccs2)n1-c1ccccc1)NCC1CCCO1 (stereo not drawn)	i	1.08

Among those listed so far, eight contain a thiophene ring, fused or not.
SMILES	KCNQ2 inh	KCNQ2 inh baseline
COc1ccc(S(=O)(=O)NCCC(=O)NCc2cccs2)cc1	i	0.53
CC(NC(=S)Nc1cccc(F)c1)C(c1cccs1)N1CCOCC1 (stereo not drawn)	i	-0.16
Cc1cc(C)c(C(CC(=O)c2cccs2)C(C#N)C#N)c(C)c1 (stereo not drawn)	i	0.67
COC(=O)c1c(NC(=O)CSc2nncs2)sc2c1CCCCC2	i	-1.25
O=C(Nc1ccccc1)c1ccc(-c2ccccc2)s1	i	0.65
COc1ccc(-c2csc3ncnc(N4CCN(c5ccccc5OC)CC4)c23)cc1	i	-0.04
CCCCNC(=O)N(O)C1N(/N=C/c2cccs2)C(=S)SC1(C)C (stereo not drawn)	i	-0.07
O=C(CSc1nnc(-c2cccs2)n1-c1ccccc1)NCC1CCCO1 (stereo not drawn)	i	1.08

Screening results deposited in PubChem BioAssay by Johns Hopkins Ion Channel Center.

A portion of the library (hit frequency here may not be typical).
